Source: PubChem (Broad Institute)
NOMO-1 viab – STK33 inhibitor candidate reducing NOMO-1 cell viability; NOMO-1 AML viability, CellTiter-Glo luminescence, 72 h; inhibition, % (no concentration beside the values); 37,000 tested, 7.5% active; AID 2330;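 active = most replicates above 80%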;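 also: wells of about 30 µL received 25 nL stock; 0% = median of vehicle wells and 100% = reference inhibitor level; the first replicate is given; inactives centre near 10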
Active calls of the source: *. The list is partial; count on the stated rates, not on these rows.

SMILES | NOMO-1 viab
COc1ccc(CN(C)C[C@@H]2Oc3c(NS(=O)(=O)c4cccs4)cccc3C(=O)N([C@@H](C)CO)C[C@@H]2C)cc1 | 13
O=C(O)CCc1nc2c3c4c(sc3ncn2n1)CCCC4 | -1
Cc1ccc(Cl)c(OCC(=O)Nc2sc(C)c(C)c2C(N)=O)c1 | 8
C[C@H](CO)N1C[C@H](C)[C@@H](CN(C)Cc2ccncc2)Oc2ccc(NC(=O)Nc3ccc(F)cc3)cc2C1=O | 8
CN(C)Cc1ccc(C(=O)Oc2ccc(C(C)(C)C)cc2)cc1 | 115*
CNC[C@H]1Oc2ccc(NC(=O)Nc3ccc4c(c3)OCO4)cc2C(=O)N([C@H](C)CO)C[C@@H]1C | -1
Cc1ccccc1NC(=O)CC(C(=O)O)N1CCOCC1 (stereo unspecified) | -14
CCOc1ccc(Nc2nc3cc(C)ccc3cc2C)cc1 | 23
COc1ccc(S(=O)(=O)Nc2ccc3c(c2)C(=O)N([C@H](C)CO)C[C@H](C)[C@@H](CN(C)CC2CCCCC2)OCCCC[C@@H](C)O3)cc1 | 56
COc1ccc(CCNC(=O)c2nn3c(C(F)(F)F)cc(-c4ccccc4)nc3c2Cl)cc1OC | 50
Cc1ccc(C(=O)/C=C2/NCCNC2=O)cc1 | 15
C[C@@H]1CN([C@@H](C)CO)C(=O)c2cc(NC(=O)Cc3cn(C)c4ccccc34)ccc2O[C@@H]1CN(C)C(=O)Nc1ccc(F)cc1 | 11
Cc1noc(C)c1S(=O)(=O)N(C)C[C@@H]1Oc2c(NS(=O)(=O)c3cn(C)cn3)cccc2C(=O)N([C@@H](C)CO)C[C@@H]1C | -8
CCNc1nc(SCC(N)=O)nc(N2CCOCC2)n1 | 17
C[C@H](CO)N1C[C@H](C)[C@@H](CN(C)Cc2ccc(-c3ccccc3)cc2)Oc2c(NC(=O)NC3CCCCC3)cccc2C1=O | 71
CNC[C@@H]1Oc2ccc(NC(=O)Nc3c(C)noc3C)cc2C(=O)N([C@@H](C)CO)C[C@@H]1C | 21
C[C@H]1CN([C@@H](C)CO)C(=O)Cc2cc(NS(=O)(=O)c3ccc(F)cc3)ccc2O[C@H]1CN(C)C(=O)NC1CCCCC1 | -3
COc1ccc(NC(=O)Nc2ccc3c(c2)C(=O)N([C@H](C)CO)C[C@@H](C)[C@@H](CN(C)S(=O)(=O)c2cccs2)O3)cc1 | -1
CN=C(C)c1c(O)c2ccccc2oc1=O | 7
C[C@@H]1CN([C@@H](C)CO)C(=O)c2cc(NC(=O)Nc3ccc(F)cc3)ccc2O[C@H]1CN(C)C(=O)Nc1ccc(C(F)(F)F)cc1 | 61
COc1ccc(S(=O)(=O)N(C)C[C@@H]2Oc3c(NC(=O)Nc4ccc(F)cc4)cccc3C(=O)N([C@H](C)CO)C[C@H]2C)cc1 | -6
CS(=O)(=O)N(CC(=O)Nc1ccc(F)c(F)c1)c1cccc(Cl)c1 | 31
Cc1noc(C)c1NC(=O)Nc1cccc2c1O[C@H](CN(C)S(=O)(=O)c1ccccc1)[C@@H](C)CN([C@@H](C)CO)C2=O | -9
CN(C)c1nc(OCCNC(=O)Nc2ccc(Cl)cc2)nc(N(C)C)n1 | 45

Look-ups from the entries so far.
Under NOMO-1 viab, Cc1noc(C)c1NC(=O)Nc1cccc2c1O[C@H](CN(C)S(=O)(=O)c1ccccc1)[C@@H](C)CN([C@@H](C)CO)C2=O is entered as -9
Under NOMO-1 viab, CN=C(C)c1c(O)c2ccccc2oc1=O is entered as 7

The list continues:
SMILES | NOMO-1 viab
CNC[C@@H]1Oc2c(NC(=O)Nc3ccc(C(F)(F)F)cc3)cccc2C(=O)N([C@@H](C)CO)C[C@@H]1C | 10
C[C@@H]1CN([C@@H](C)CO)C(=O)c2cc(NS(=O)(=O)c3ccccc3)ccc2O[C@H]1CN(C)Cc1ccc(Cl)c(Cl)c1 | 42
C[C@H]1CN([C@@H](C)CO)C(=O)Cc2cc(NC(=O)Nc3ccc(F)cc3)ccc2O[C@H]1CN(C)Cc1ccc(C(=O)Nc2ccccc2N)cc1 | 128*
Cn1c(SCC(=O)Nc2ccc(I)cc2)nnc1-c1cc2ccccc2o1 | 11
CC1OC(O[C@H]2CC[C@@]3(C)C(CC[C@]4(C)C3CC=C3C5CC(C)(C)CC[C@]5(C(=O)OC5OC(CO)C(OC6OC(CO)C(O)C(O)C6O)C(O)C5O)CC[C@]34C)C2(C)C)C(O)C(O)C1OC1OCC(O)(COC2OCC(O)C(OC3OCC(OC4OCC(O)(CO)C4O)C(O)C3O)C2O)C1O (stereo partly specified) | 14
CCc1ccc(CCC(=O)Nc2ccc(C)c(C)c2)o1 | 28
Cc1cccc(NC(=O)C(=O)NCCCn2ccnc2)c1 | 2
COc1ccc(S(=O)(=O)N(C)CC(=O)Nc2ccc3c(c2)OCCO3)cc1OC | 7
CCC(=O)N1CCN(c2ccc(Cl)cc2NC(=O)COc2cc(C)cc(C)c2)CC1 | 45
O=C(NCc1ccccc1)c1nc2ncccn2n1 | 3
O=C(NCCN1CCN(C(=O)c2cccc(Br)c2)CC1)C(=O)Nc1ccc(F)cc1 | 39
C[C@@H]1CN([C@H](C)CO)C(=O)c2cccc(NC(=O)c3ccc(-c4nccs4)cc3)c2O[C@H]1CN(C)C(=O)NC1CCCCC1 | 10
COc1ccc(S(=O)(=O)N(C)CCc2ccccn2)cc1 | -3
COc1ccc(S(=O)(=O)N(CC(=O)Nc2ccccc2)C2CCCCC2)cc1Cl | 32
C[C@H]1CN([C@@H](C)CO)C(=O)Cc2cc(NC(=O)Nc3ccc(F)cc3)ccc2O[C@@H]1CN(C)S(=O)(=O)c1ccccc1 | -3
COc1ccc(NC(=O)Nc2ccc3c(c2)C(=O)N([C@@H](C)CO)C[C@H](C)[C@H](CN(C)Cc2ccncc2)O3)cc1 | 103*
CNC[C@@H]1Oc2ccc(NC(=O)CCC(F)(F)F)cc2CC(=O)N([C@@H](C)CO)C[C@@H]1C | 11
COc1ccc([N+](=O)[O-])cc1NC(=O)CCN1CCN(c2ccccc2OC)CC1 | 27
C[C@@H]1CN([C@@H](C)CO)C(=O)c2cccc(NC(=O)c3cnccn3)c2O[C@H]1CN(C)Cc1ccc(C(F)(F)F)cc1 | 31
COc1ccc(S(=O)(=O)N(C)C[C@H]2Oc3ccc(NS(=O)(=O)c4c(C)noc4C)cc3CC(=O)N([C@@H](C)CO)C[C@H]2C)cc1 | 25
C[C@H]1CN([C@@H](C)CO)C(=O)c2cc(NC(=O)CCCCCC(=O)Nc3ccccc3N)ccc2O[C@H]1CN(C)Cc1ccncc1 | 5
COc1ccc(S(=O)(=O)N(C)C[C@H]2Oc3ccc(NC(=O)Nc4ccc(F)cc4)cc3CC(=O)N([C@@H](C)CO)C[C@H]2C)cc1 | 21
COc1ccc(S(=O)(=O)N(C)C[C@@H]2Oc3ccc(NC(=O)NC4CCCCC4)cc3CC(=O)N([C@H](C)CO)C[C@H]2C)cc1 | -23
COc1ccc(S(=O)(=O)Nc2cccc3c2O[C@@H](CN(C)C(=O)Nc2ccc4c(c2)OCO4)[C@@H](C)CN([C@@H](C)CO)C3=O)cc1 | -3
Cc1noc(C)c1S(=O)(=O)Nc1cccc2c1O[C@H](CN(C)Cc1ccncc1)[C@H](C)CN([C@H](C)CO)C2=O | 13
C[C@@H]1CN([C@H](C)CO)C(=O)Cc2cc(NC(=O)CCC(F)(F)F)ccc2O[C@H]1CN(C)Cc1ccc2c(c1)OCO2 | 5
C[C@@H]1CN([C@@H](C)CO)C(=O)Cc2cc(NC(=O)c3ccncc3)ccc2O[C@@H]1CN(C)S(=O)(=O)c1ccc(Cl)cc1 | 7
COc1ccc(NC(=O)N(C)C[C@H]2Oc3ccc(NC(=O)Nc4ccc(F)cc4)cc3CC(=O)N([C@@H](C)CO)C[C@H]2C)cc1 | 1
C[C@H](CO)N1C[C@H](C)[C@@H](CN(C)C(=O)Nc2ccc(C(F)(F)F)cc2)Oc2ccc(NS(=O)(=O)c3cccs3)cc2C1=O | 12
Cc1ccccc1C(=O)Nc1cccc(NC(=O)COc2cc(C)c(Cl)c(C)c2)c1 | 44
C[C@@H]1CN([C@@H](C)CO)C(=O)c2cccc(NS(C)(=O)=O)c2O[C@@H]1CN(C)S(=O)(=O)c1ccc(Cl)cc1 | 13
COc1ccc(OC(C)C(=O)Nc2ccc(C(N)=O)cc2)cc1 (stereo unspecified) | -5
C[C@H](CO)N1C[C@H](C)[C@@H](CN(C)Cc2ccccc2)Oc2c(cccc2N(C)C)C1=O | 7
Cc1noc(C)c1NC(=O)Nc1ccc2c(c1)C(=O)N([C@H](C)CO)C[C@@H](C)[C@@H](CN(C)Cc1ccc(Oc3ccccc3)cc1)O2 | 0
CS(=O)(=O)N(CC(=O)Nc1cc(C(F)(F)F)ccc1Cl)c1ccc2c(c1)OCCO2 | -7
C[C@H]1CN([C@@H](C)CO)C(=O)c2cccc(NC(=O)Nc3ccc(F)cc3)c2O[C@@H]1CN(C)Cc1ccc(C(=O)O)cc1 | -9
O=C(COc1ccccc1[N+](=O)[O-])Nc1ccc2oc(-c3ccc(Cl)cc3Cl)nc2c1 | 29
COc1ccc(/C=C/C(=O)O[C@@H]2[C@@H](O)[C@@H](O)[C@H](O[C@H]3[C@@H]4C=CO[C@@H](O[C@@H]5O[C@H](CO)[C@@H](O)[C@H](O)[C@H]5O)[C@@H]4[C@@]4(CO)O[C@@H]34)O[C@H]2C)cc1 | 14
Cc1noc(C)c1NC(=O)Nc1ccc2c(c1)CC(=O)N([C@H](C)CO)C[C@H](C)[C@H](CN(C)S(C)(=O)=O)O2 | 10
c1cc(-c2nnn(C3CCCCC3)c2NC2CCCCC2)[nH]n1 | 36
C[C@@H]1CN([C@H](C)CO)C(=O)Cc2cc(NC(=O)C3CCCCC3)ccc2O[C@@H]1CN(C)C(=O)Nc1ccc(C(F)(F)F)cc1 | 28
COc1ccccc1C1=NN(C(=O)CCC(=O)O)C(c2ccco2)C1 (stereo unspecified) | 11
COc1ccc(NC(=O)Nc2cccc3c2O[C@@H](CN(C)Cc2ccncc2)[C@H](C)CN([C@@H](C)CO)C3=O)cc1 | 2
C[C@H](CO)N1C[C@H](C)[C@@H](CN(C)Cc2ccc(C(=O)Nc3ccccc3N)cc2)Oc2ccc(NC(=O)Cc3cn(C)c4ccccc34)cc2C1=O | 27
CC(=O)c1ccc(NC(=O)CNS(=O)(=O)c2ccc(C(C)(C)C)cc2)cc1 | 49
C[C@H]1CN([C@@H](C)CO)C(=O)c2cc(NC(=O)CCN3CCOCC3)ccc2O[C@@H]1CN(C)C(=O)Nc1ccccc1 | -23
O=C(NCC(O)c1ccccc1)c1ccc(S(=O)(=O)N2CCOCC2)cc1 (stereo unspecified) | 24
COc1cccc(OC)c1OCCNCC1COc2ccccc2O1 (stereo unspecified) | 0
COc1ccc(NC(=O)Nc2cccc3c2O[C@H](CN(C)S(=O)(=O)c2ccc(C)cc2)[C@H](C)CN([C@H](C)CO)C3=O)cc1 | 25
C=C1C(=O)O[C@H]2C1C[C@@H](OC(C)=O)[C@@]1(C)[C@@H](OC(C)=O)C[C@@H](OC(C)=O)C(=C)[C@H]21 (stereo partly specified) | 120*
C[C@H](CO)N1C[C@H](C)[C@H](CN(C)Cc2ccc(Cl)c(Cl)c2)Oc2ccc(NC(=O)Nc3ccc4c(c3)OCO4)cc2C1=O | 88*
C[C@H]1CN([C@@H](C)CO)C(=O)c2cccc(NC(=O)C3CCOCC3)c2O[C@H]1CN(C)S(=O)(=O)c1cccs1 | 13
O=C(CCCN1C(=O)c2ccccc2C1=O)Nc1ccc(F)c(Cl)c1 | -22
COc1ccc(C2Oc3cc(OC)ccc3CC2O)cc1 (stereo unspecified) | 0
COC(=O)c1ccccc1NC(=O)CSc1nnc(-c2ccccc2)o1 | -2
COc1ccc(S(=O)(=O)N(C)CC(=O)Nc2cc([N+](=O)[O-])ccc2C)cc1C | -5
C[C@H]1CN([C@@H](C)CO)C(=O)Cc2cc(NC(=O)C3CCCCC3)ccc2O[C@H]1CN(C)C(=O)Nc1ccc(C(F)(F)F)cc1 | 11
CCCN(C)C[C@@H]1OCCCC[C@@H](C)Oc2ccc(N(C)C)cc2C(=O)N([C@H](C)CO)C[C@@H]1C | 2
CCCc1cc(=O)[nH]c(SCC(=O)Nc2ccc3c(c2)OCCO3)n1 | 0
C[C@@H]1CN([C@@H](C)CO)C(=O)c2cccc(NC(=O)C3CC3)c2O[C@@H]1CN(C)S(=O)(=O)c1cccs1 | 45

Further results follow.
SMILES | NOMO-1 viab
COc1ccc(CN(C)C[C@H]2Oc3ccc(NC(=O)Cc4ccccc4)cc3C(=O)N([C@@H](C)CO)C[C@H]2C)cc1 | 8
Cc1ccc([N+](=O)[O-])cc1NC(=O)CN(C)S(=O)(=O)c1ccc(Cl)cc1 | 21
O=c1c2ccccc2nc(CSc2nnc(-c3ccco3)n2-c2ccccc2)n1-c1ccccc1Cl | 15
COC(=O)c1c(NC(=O)c2ccccc2N(C)S(C)(=O)=O)sc2c1CCCC2 | 52

6 structures from above, arranged by length of the SMILES, low to high.
SMILES | NOMO-1 viab
CCCc1cc(=O)[nH]c(SCC(=O)Nc2ccc3c(c2)OCCO3)n1 | 0
COC(=O)c1c(NC(=O)c2ccccc2N(C)S(C)(=O)=O)sc2c1CCCC2 | 52
Cc1ccc([N+](=O)[O-])cc1NC(=O)CN(C)S(=O)(=O)c1ccc(Cl)cc1 | 21
O=c1c2ccccc2nc(CSc2nnc(-c3ccco3)n2-c2ccccc2)n1-c1ccccc1Cl | 15
COc1ccc(CN(C)C[C@H]2Oc3ccc(NC(=O)Cc4ccccc4)cc3C(=O)N([C@@H](C)CO)C[C@H]2C)cc1 | 8
C[C@@H]1CN([C@@H](C)CO)C(=O)c2cccc(NC(=O)C3CC3)c2O[C@@H]1CN(C)S(=O)(=O)c1cccs1 | 45
